gsp ag – qHTS for Agonist of gsp, the Etiologic Mutation Responsible for Fibrous Dysplasia/McCune-Albright Syndrome: qHTS. actives 0.13% (n = 340,000). Potency, µM (titrated, usually from 76.9 µM), for the others: at the highest dose activation (cAMP increase), hits mostly activators. gsp mutant cells, cAMP HTRF, 30 min; control for the full effect not named in the record. AID 624287, 2012; active = well fitted activation curve with a large enough effect; inconclusive = small, poorly fitted or top-dose-only effect, or another doubt; inactive = no such curve, though single readings can be large or run the other way; cell line not stated here;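 note: phosphodiesterase inhibitor Ro 20-1724 added with compounds to block cAMP breakdown; potency is the fitted concentration of half-maximal effect; nearly all actives have a fitted effect of over 60% in size; about a fifth of the inactives were tested at one dose only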
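Cells in DMEM/10% FBS with G418 were pretreated with compounds in DMSO plus […] (300 uM stock) for 30 min at 37C. cAMP was measured by HTRF (cAMP-d2 plus anti-cAMP antibody-K) after 30 min at room temperature.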
Menin MLL FP FL – qHTS Assay for Inhibitors Targeting the Menin-MLL Interaction in MLL Related Leukemias: Competition With Fluorescein Labeled MLL-derived Peptide; Fluorescence polarization, fluorescein-MLL peptide displacement from menin; FP activity change, % at 61.4 µM; 290,000 tested, under 10 active; AID 1766, 2009; inconclusive = falling polarisation curve, or a change in total fluorescence; inactive = total fluorescence flat and polarisation flat or rising; no compound was filed as active; the % refers to the polarisation; negative = inhibition;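 note: % of control where 0% means no effect; inhibitors lower the polarisation; unlabelled MLL peptide was the positive control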
Sfp inh – qHTS Assay for Inhibitors of Bacillus subtilis Sfp phosphopantetheinyl transferase (PPTase) | 4'-phosphopantetheinyl transferase ffp (Bacillus subtilis), Q9F4F7 | Biochemical Sfp PPTase activity, qHTS | Potency, µM, for the others: max response, negative = inhibition, most hits filed as inhibitors | actives 3.5% (n = 310,000); active = well fitted inhibition curve with a large enough effect; inconclusive = small, poorly fitted or top-dose-only effect, or another doubt; inactive = no such curve, though single readings can be large or run the other way;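 note: the enzyme is Sfp with the accession as filed and its product quenches rhodamine fluorescence; potency is the fitted concentration of half-maximal effect; 0% = enzyme reaction without inhibitor and -100% = no enzyme wells; top concentration of the series not given in the record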
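Sfp 15 nM + cpd, 15 min RT; start w/ rhodamine-CoA 5 uM, BHQ-2-YbbR 12.5 uM (final); 50 mM Hepes pH 7.6, 10 mM MgCl2, 0.01% NP-40, 0.01% BSA; read 525/598 nm at 0 and 30 min.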
PINK1 expr mod – A Quantitative High throughput Screen to Identify Chemical Modulators of PINK1 Expression. PINK1 immunofluorescence, high-content cytometry, 24 h. Potency, µM (top dose mostly 76.6 µM), for the others: at the highest dose activation (PINK1 increase), actives largely listed as activators. actives 0.2% (n = 410,000). AID 624263, 2012; active = well fitted activation curve with a large enough effect; inconclusive = small, poorly fitted or top-dose-only effect; inactive = flat fitted curve, though single readings scatter; cell line not stated here;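 note: potency is the fitted concentration of half-maximal effect; % of control where 0% means no effect; nearly all actives have a fitted effect of over 65% in size; a mitochondrial uncoupler was the plate control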
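Compound titrations (5 concentrations, 24 h) on a stable cell line; DMSO and CCCP controls. Endpoint: fixed-cell PINK1 immunofluorescence with mitochondrial, cell and nuclear markers, scanned by microplate cytometer.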
D2 agonist – Beta-Arrestin HTS for Positive Allosteric Modulators of the Human D2 Dopamine Receptor: Agonists; D(2) dopamine receptor (Homo sapiens), P14416; DiscoveRx PathHunter D2 beta-arrestin, luminescence, 90 min; 100% = 57 uM dopamine signal; activation, % (test concentration not listed); actives 0.084% (n = 360,000); in the data active = activation above about 40%; inconclusive = about 15% to 40%; inactive = below about 15%; note: compound concentration not given in the record; the text of the record calls up to 30% inactive
Target sequence (P14416 whole entry, looked up): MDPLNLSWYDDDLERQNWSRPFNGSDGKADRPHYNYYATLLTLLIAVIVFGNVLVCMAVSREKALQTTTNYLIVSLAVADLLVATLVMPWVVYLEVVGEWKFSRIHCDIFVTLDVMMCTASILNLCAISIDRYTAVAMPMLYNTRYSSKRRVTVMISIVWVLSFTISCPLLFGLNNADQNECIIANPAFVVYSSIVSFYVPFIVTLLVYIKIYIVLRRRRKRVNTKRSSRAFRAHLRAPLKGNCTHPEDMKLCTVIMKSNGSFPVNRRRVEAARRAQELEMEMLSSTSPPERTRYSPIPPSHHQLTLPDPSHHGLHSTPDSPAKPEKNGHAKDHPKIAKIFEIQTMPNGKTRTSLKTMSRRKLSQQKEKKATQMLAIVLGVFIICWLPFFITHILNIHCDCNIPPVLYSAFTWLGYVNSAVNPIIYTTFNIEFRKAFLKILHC
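Agonist mode: compounds alone added to overnight-plated D2 PathHunter cells for 90 min at 37 C, with 57 uM final dopamine (EC100) defining full response. Beta-arrestin recruitment detected by chemiluminescent reagent, read after 1 h at ambient temperature.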
gsp antag – qHTS for Antagonists of gsp, the Etiologic Mutation Responsible for Fibrous Dysplasia/McCune-Albright Syndrome: qHTS; actives 0.4% (n = 340,000); Potency, µM (series often up to 76.9 µM), without a hit: at the highest dose activity change, negative = inhibition, usual class: inhibitors; AID 624288, 2012; gsp-mutant cells, cAMP HTRF, 30 min; control for the full effect not named in the record; active = falling curve of any shape with a large fitted effect; inconclusive = falling curve, mostly with a smaller effect; inactive = flat or rising curve; cell line not stated here;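 note: intracellular cAMP measured with PDE inhibitor Ro 20-1724 present during compound exposure; potency is the fitted concentration of half-maximal effect; % is set by controls: 0 for no effect and ±100 for the full control effect; nearly all actives have a fitted effect of over 65% in size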
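Cells, 2000/well, grown 16–24 h in DMEM 10% FBS with 0.5 mg/ml G418, then compounds plus […] (300 uM addition stock), 30 min at 37C. cAMP read by HTRF (cAMP-d2 and anti-cAMP antibody-K in lysis buffer) after 30 min RT.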
ClpP mod – qHTS Assay for Activators of ClpP; ATP-dependent Clp protease proteolytic subunit (Bacillus subtilis (strain 168)), P80244; purified B. subtilis ClpP, FRET peptide cleavage, 20 min; Potency, µM (titrated, usually from 57.5 µM), for inactives: top-dose activity change, negative = active; actives 1.9% (n = 340,000); AID 651965, 2013; active = well fitted falling curve with a large enough effect; inconclusive = small, poorly fitted or top-dose-only effect; inactive = no such curve, though single readings can be large or run the other way; note: potency is the fitted concentration of half-maximal effect; the source files actives as falling curves though it sought activators and does not explain the sign; nearly all actives have a fitted effect of over 65% in size; many hits overshoot -100%
Target sequence (P80244 whole entry, looked up): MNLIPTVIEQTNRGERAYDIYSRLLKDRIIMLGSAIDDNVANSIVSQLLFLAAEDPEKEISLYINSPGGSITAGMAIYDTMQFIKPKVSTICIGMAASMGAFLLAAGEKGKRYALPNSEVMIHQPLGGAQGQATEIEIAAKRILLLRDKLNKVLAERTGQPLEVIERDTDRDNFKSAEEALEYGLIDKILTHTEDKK
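Purified B. subtilis ClpP, 10 microg/mL final in Tris/HCl pH8 with KCl, BSA, glycerol and Tween-20, cleaved an Abz/nitrotyrosine-quenched decapeptide. Fluorescence (ex 320, em 430) was read at 0 and 20 min at room temperature. Delta was normalized to 5.8 microM ADEP and DMSO/no-enzyme controls.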
An asterisk follows results filed as active; ? = inconclusive; · = no result given; & = joins results of further samples; [ ] = dose if it differs, or a comment.

SMILES | gsp ag | Menin MLL FP FL | Sfp inh | PINK1 expr mod | D2 agonist | gsp antag | ClpP mod
CC(C)(C)c1ccc(C(=O)NCCC(=O)NNC(=O)COc2ccc(F)cc2)cc1 | -3% | · | · | 0.6% | -1.3 | 9% | 0.7%
Fc1ccccc1CNC(=S)NC1CCCCC1 | -10% | 0.2 | 11% | 0.7% | -0.5 | 4% | -1.5%
O=C(Nc1ccccc1)C(Cc1ccccc1)c1ccccc1 (stereo unspecified) | -40%[inhibitor] | · | · | 2.9% | -2.4 | -7% | 1.2%
Cc1cccc(NC(=O)COC(=O)CN2C(=O)c3ccccc3C2=O)c1C | -38%[inhibitor] | · | · | 1.9% | -3.2 | · | -0.6%
Cn1c(=O)c2c(nc(CN3CCN(C(=O)c4ccco4)CC3)n2Cc2ccccc2F)n(C)c1=O | ? | 0.1 | 15% | 0.9% | -3.1 | -4% | -4.5%
O=C(COc1c(Cl)cccc1Cl)NN1C(=O)CSC1=S | 19% | 11 | 12% | -0.1% | -3.3 | -9% | 2.0%
C/C(=N\NC(=S)Nc1ccc(F)cc1)c1ccc2c(c1)OCCO2 | 26% | 5.8 | 12% | 1.0% | -4.7 | -7% | -5.0%
COc1ccccc1C(=O)NCCC(=O)N(C)Cc1cccs1 | 9% | · | · | -0.9% | -7.6 | 9% | -2.4%
COc1ccc(NC(C)C(=O)N/N=C/c2cc(Br)ccc2OC)cc1 (stereo unspecified) | 18%[15.4 µM] | 6.6 | -19% | -0.2% | -3.4 | -12% | ·
O=C(NCCN1CCOCC1)c1cc(-c2ccc(Cl)cc2)on1 | -52%[inhibitor] | 0.0 | 10% | -3.0%[38.3 µM] | 0.9 | 10% | 0.1%
Cc1ccc(NC(=O)CCN2C(=O)NC(C)(C)C2=O)cc1F | -3%[15.4 µM] | · | · | -0.6% | 2.6 | 8% | ·
CC(C)(C)NC(=O)C(c1cccs1)N(Cc1ccc(F)cc1)C(=O)c1csnn1 (stereo unspecified) | -9%[15.4 µM] | 0.7 | -7% | -1.1% | -2.9 | 8% | ·
O=C(CSc1ccc2nnc(CCNC(=O)c3ccc(F)cc3)n2n1)NCc1ccco1 | 17%[15.4 µM] | · | 9% | 1.7% | -3.1 | -11% | -8.4%
CC(OC(=O)C1CCN(S(=O)(=O)c2ccc(Cl)cc2)CC1)C(=O)NC1CCCCC1C (stereo unspecified) | -30%[inhibitor] | · | 2% | -0.6% | 2.0 | -6% | 1.6%
COc1ccc(N2CCN(C(=O)COCC(=O)O)CC2)cc1 | -29% | -3.7 | -10% | 1.7% | 2.1 | 5% | ·
CCN1CCN(c2ncc(C(=O)N3CCCc4ccccc43)c3ccccc23)CC1 | 3% | -7.4 | 4% | -1.7% | -4.6 | -14% | 0.7%
O=C(Nc1cc(Cl)ccc1-n1cncn1)c1ccco1 | -3% | · | · | -0.6% | -4.0 | 8% | -1.2%
CN(C)CCN(C(=O)c1cccs1)c1nc2cc3c(cc2s1)OCCO3 | -3%[15.4 µM] | -2.1 | -4% | 2.2% | -1.5 | -1% | -0.9%
CC1CCCCC1NC(=O)c1ccc(S(=O)(=O)NNC(=O)c2ccncc2)cc1 (stereo unspecified) | -15%[15.4 µM] | -5.4 | ? | -0.2% | -0.4 | -20% | ·
Cc1ccc(SCCC(=O)NCc2ccccn2)cc1 | 3%[15.4 µM] | -2.6 | 11% | 1.2% | -3.0 | 6% | -6.9%
COc1ccc(N2CCN(C(c3cccs3)C(C)NC(=O)c3ccco3)CC2)cc1 (stereo unspecified) | 9% | 4.1 | -2% | -3.5%[38.3 µM] | -2.3 | ? | -6.2%
Cc1ccc(N=Cc2c(O)c3ccccc3oc2=O)c(C)c1 | -39%[inhibitor] | 0.3 | 8% | 1.5% | 0.8 | 13% | 3.7%
CC(C)Nc1nc(-c2ccncc2)nc(-c2ccccc2)c1C#N | -39%[inhibitor] | 2.9 | 7% | 4.8% | 3.0 | -16% | -6.5%
O=C(C=NNc1ccccc1)c1ccccc1 | ? | · | · | 3.0% | -3.4 | 10% | ·
CCNCc1nc2cc(Cl)ccc2c(=O)[nH]1 | 13% | -0.5 | ? | -1.5% | -6.5 | 7% | ·
CCOC(=O)C1=C(CC)Nc2ccccc2N=C1NC(=O)c1ccc(OC)c(S(=O)(=O)N2CCCCC2C)c1 (stereo unspecified) | -5% | -0.2 | 7% | 3.2% | 0.7 | ? | -2.3%
O=C(NCc1ccccc1Cl)c1cnc2n(c1=O)CCS2 | ? | 1.6 | ? | 0.3% | -2.2 | -5% | -4.0%
O=C(O)CCC(=O)Nc1ccc(C(=O)OCC(=O)c2ccc(Cl)cc2Cl)cc1 | -25% | -0.3 | -9% | -1.4% | -4.4 | 3% | ·
COC(=O)c1cc(C)nc(Sc2ccccc2N)n1 | -3% | -2.1 | 2µM* | 4.3% | 10 | -10% | ·
Nc1c(C(=O)c2ccccc2)sc2nsc(SCCN3CCCC3)c12 | -3%[15.4 µM] | ? | -23% | 0.3% | -1.6 | -11% | ·
CCN(CC)CCN1C(=O)C(=O)/C(=C(/O)c2cnn(-c3ccccc3)c2C)C1c1cccnc1 (stereo unspecified) | -19% | 1.3 | 14% | 1.4% | 1.0 | 8% | 0.3%
CCCCn1c(N)c(N(CCOC)C(=O)C2CC(=O)N(Cc3ccco3)C2)c(=O)[nH]c1=O (stereo unspecified) | -16% | · | · | 0.1% | -2.8 | 14% | -0.7%
CC(NCC(O)COC1CCC(C(C)(C)C)CC1)c1ccccc1 (stereo unspecified) | -18% | -0.3 | -8% | -1.8% | -6.8 | -13% | 1.1%
CN(Cc1ccccc1F)C(=O)c1cccc(NC(=O)CC2SC(N3CCCCC3)=NC2=O)c1 (stereo unspecified) | 0%[15.4 µM] | · | · | 6.1% | -0.3 | -29% | ·
CCC(C)(C)n1nnnc1CN(Cc1cccs1)Cc1cc2cc(OC)ccc2[nH]c1=O | -26% | 1.4 | -2% | · | -4.2 | -8% | -16%
O=C1C=C(c2ccc(CO)cc2)C[C@@H](c2ccc(F)cc2)C1 | -16% | · | · | 1.3% | -1.1 | · | -1.2%
O=C(COc1ccc(Cl)cc1Br)Nc1nnc(C2CC2)s1 | 1% | · | · | -1.4% | -4.5 | ? | -1.2%
Cc1cccnc1NC(=O)C1c2ccccc2Oc2ccccc21 | -41% | 0.9 | 2% | 6.6% | -0.7 | 5% | 1.3%
CCC(C)N=C1Sc2nc3ccc(C)cc3cc2CN1CCOC (stereo unspecified) | 14%[15.4 µM] | -11 | 45µM* | 2.7% | -1.7 | -8% | ·
CCCc1nn(C)c(C(=O)Nc2cccc(Cl)c2)c1Cl | -45%[inhibitor] | -1.2 | 10% | 11% | -0.5 | -9% | 1.5%
COCc1nnc(NC(=O)c2ccc(S(=O)(=O)N3CCOCC3)cc2)o1 | 18% | -1.6 | -28% | 0.7% | -3.3 | -9% | 3.3%
Nc1ccc(/C=C/c2ccc3ncccc3c2)cc1 | 6% | 5.0 | -3% | 1.0% | -6.1 | 7% | -4.7%&-3.8%
COc1ccc(N(CC(=O)NCC2CCCO2)S(=O)(=O)c2ccccc2)cc1OC (stereo unspecified) | ? | 4.6 | 6% | 0.7% | -1.0 | 2% | ·
CC(OC(=O)c1oc2ccccc2c1CSC1CCCCC1)C(=O)NC(N)=O (stereo unspecified) | -10% | 5.4 | 10% | 6.5% | -2.7 | -11% | -1.4%
Oc1ccccc1-n1c(-c2ccccc2)ccc1-c1ccccc1 | -26% | -2.7 | -21% | 11% | -5.4 | -11% | 4.1%
O=C(CCc1ccc(O)c(O)c1)NNC(=S)Nc1ccc(Br)cc1Cl | 3% | -7.5 | 30% | 1.5% | -1.7 | 10% | ·
Cc1ccc(-c2nc3ncccn3c2NC(=O)C2CC2)cc1 | ? | 4.7 | 17% | 2.7% | 1.1 | 4% | ?
CCC(C)C(NC(=O)c1ccccc1NC(=O)c1ccco1)C(=O)O (stereo unspecified) | 7% | 2.1 | 14% | -14%[38.3 µM] | -1.9 | -3% | -4.3%
C#CCNC(=O)C1=C[C@H](c2cn(C(C)=O)c3ccccc23)C[C@H](OCc2ccc(CO)cc2)O1 | -5% | 16 | -4% | 2.5% | ? | -25% | -1.8%
O=C(O)c1cc2ccccc2c(=O)s1 | 20% | 2.9 | 9% | 0.1% | -4.4 | 6% | -9.4%
CC(C)=CCc1c(O)cc2c(=O)c3ccc(O)cc3oc2c1O | · | · | · | 2.9% | 3.5 | 12% | 1.2%
Cc1onc(-c2c(Cl)cccc2Cl)c1C(=O)c1ccccc1 | -5%[15.4 µM] | -1.2 | -1% | 2.5% | -1.6 | -16% | ·
CN1CCN(C(=O)c2cccc(NS(=O)(=O)c3ccc(Br)cc3)c2)CC1 | -2%[15.4 µM] | · | · | -0.8% | -6.4 | 0% | 0.4%
CCOc1cc(CNn2cnnc2)ccc1OCC(=O)NC1CCCCC1 | 4% | -0.9 | 21% | ? | -0.5 | -3% | -0.1%
O=C(Cn1ncc(Cl)c(Cl)c1=O)N1CCN(Cc2ccccc2)CC1 | -7% | 4.5 | -15% | 0.5% | -3.8 | -8% | -0.3%
CCOc1ccccc1NC(=O)CNC(=O)Cc1ccccc1 | -4%[15.4 µM] | 0.3 | -7% | 0.0% | 1.2 | 14% | -2.9%

Screens deposited in PubChem by National Center for Advancing Translational Sciences (NCATS).
